High-throughput results: PubChem, National Center for Advancing Translational Sciences (NCATS)
N370S GC: inhibitors or activators of N370S glucocerebrosidase for Gaucher disease. N370S GC spleen homogenate, 4MU-glucoside fluorescence. Potency, µM (series often up to 59.4 µM), for the others: at the top dose activity change, negative = inhibition, actives largely listed as inhibitors. 0.092% of 330,000 active. AID 2101;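 also: 0% = full enzyme activity and -100% = no enzyme basal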
FEN1 inhibitor: blocks human flap endonuclease 1. 0.35% of 390,000 active. P39748. Potency, µM (highest dose often 114 µM), without a hit: at the top dose activity change, negative = inhibition, usual class: inhibitors. Recombinant FEN1 flap cleavage, fluorescence, 15 min; also: nearly all actives have a fitted effect of over 65% in size
Target sequence (P39748 whole entry, looked up): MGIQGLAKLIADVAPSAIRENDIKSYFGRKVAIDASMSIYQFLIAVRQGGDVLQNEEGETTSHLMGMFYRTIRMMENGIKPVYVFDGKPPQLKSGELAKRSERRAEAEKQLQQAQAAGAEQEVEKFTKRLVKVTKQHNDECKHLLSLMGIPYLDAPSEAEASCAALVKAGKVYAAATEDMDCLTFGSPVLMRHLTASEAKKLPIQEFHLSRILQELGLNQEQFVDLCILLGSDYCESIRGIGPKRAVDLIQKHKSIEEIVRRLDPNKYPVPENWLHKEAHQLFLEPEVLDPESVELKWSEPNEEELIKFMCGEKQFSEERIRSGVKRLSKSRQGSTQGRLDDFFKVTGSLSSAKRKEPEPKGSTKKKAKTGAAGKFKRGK
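Potency values derive from four-parameter Hill fits of normalized qHTS data. The reaction used 10 nM FEN1 preincubated 15 min at room temperature with compound, then 50 nM DNA substrate, read at 0 and 15 min.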
Active calls of the source: *; ? = inconclusive; nt = not tested or not shown; & = joins results of further samples; [ ] = dose if it differs, or a comment. Calls follow the shape of the dose curve; as a rule, active = well fitted curve in the direction sought with a large enough effect; inconclusive = small, poorly fitted or top-dose-only effect, or another doubt; inactive = no such curve, though single readings can be large; an effect the other way counts as inactive or inconclusive. Unless noted, % is scaled to controls: 0 for no effect and ±100 for the full control effect; potency is read from the fitted curve at half-maximal effect. Only part of the results is shown, and most or all hits are left out here.

SMILES | N370S GC | FEN1 inhibitor
O=C(CC1N=C2c3ccccc3N=C(SCc3cccc(F)c3)N2C1=O)NCc1ccc2c(c1)OCO2 (configuration not stated) | nt | -19.1%
O=C(CCN1C(=O)/C(=C\c2ccccc2)SC1=S)NNC(=O)c1ccncc1 | 15.4% | 15.8%
C=CCn1c(N)cc(=O)nc1SCC(=O)Nc1ccc(C(=O)OCC)cc1 | -10.9% | 8.5%
CC1CCC(NC(=O)Cn2ncc3c4ccccc4n(Cc4ccc(Cl)cc4)c3c2=O)CC1 (configuration not stated) | nt | 10.1%
O=C(Nc1cc(C(F)(F)F)ccc1Cl)C(=O)N1CCCCC1 | 18.5% | 5.4%
Cc1ccc(-n2cc(CN3CCNC(=O)CC3)c(-c3cccc(C)c3)n2)cc1 | -15.1% | 0.8%
C/C(=N/NS(=O)(=O)c1ccccc1)c1ccc(NC(=O)C2CC2)cc1 | 19.2% | 6.6%
COc1nccnc1NS(=O)(=O)c1ccc(N)cc1 | -5.1% | -14.8%
CCc1ccc(NC(=O)C2CCCN(S(=O)(=O)c3cccc4nsnc34)C2)cc1 (configuration not stated) | nt | 19.7%
Oc1c(C(c2cccs2)N2CCOCC2)sc2ncnn12 (configuration not stated) | 3.2% | -0.3%
COc1ccccc1NS(=O)(=O)c1cccc(C(=O)NNC(=O)c2ccc(Cl)nc2)c1 | nt | 14.5%
Cc1sc2ncnc(N3CCC(C(=O)Nc4nnc(SCc5ccccc5F)s4)CC3)c2c1C | 0.8% | -7.1%
Cc1nc([N+](=O)[O-])c(SCC(O)CCl)n1Cc1ccc(Cl)cc1 (configuration not stated) | -2.4% | -11.9%
Cc1nc2cc3c(cc2c(C)c1C(=O)OC(C)C)OCO3 | 3.6% | -4.3%
CN(C(=O)Cn1c(=O)oc2cc(S(=O)(=O)N3CCCC3)ccc21)C1CCCCC1 | 1.8% | 0.6%
COC(=O)c1cccc(Cn2c(Cl)c(/C=N/Nc3ccccc3C)sc2=O)c1 | -4.5% | 16.2%
COC(=O)CCN(C(C)=O)c1ccc(N)cc1 | 3.9% | -7.1%
CC(=O)c1ccc(S(=O)(=O)Oc2ccc(-c3ccc(C(=O)O)cc3)cc2)cc1 | -6.1% | -1.6%
C[C@@H](CCc1ccccc1)NC[C@H](O)c1ccc(O)c(C(N)=O)c1 | -0.1%[21.6 µM] | nt
COc1ccccc1S(=O)(=O)N1CCC(C(=O)O)(c2ccccc2)CC1 | -8.1% | 0.0%
CCC(Sc1nc(N)cc(=O)[nH]1)C(=O)Nc1cc(C)on1 (configuration not stated) | 8.4% | 11.7%
Cc1ccc(NC(=O)c2ccc(Nc3c([N+](=O)[O-])cc([N+](=O)[O-])cc3[N+](=O)[O-])cc2)cc1 | 0.9% | -20.5%
COc1ccccc1C(=O)NCC(=O)OCC(=O)N(CC(C)C)c1c(N)n(Cc2ccccc2)c(=O)[nH]c1=O | -12.1% | -0.7%
CN1CCN(S(=O)(=O)c2ccc(N3CCc4ccccc4C3)nc2)CC1 | 9.7% | -3.2%

Copied from the list.
`CN1CCN(S(=O)(=O)c2ccc(N3CCc4ccccc4C3)nc2)CC1` @ FEN1 inhibitor = -3.2%
`CC(=O)c1ccc(S(=O)(=O)Oc2ccc(-c3ccc(C(=O)O)cc3)cc2)cc1` @ N370S GC = -6.1%

The listing continues:
SMILES | N370S GC | FEN1 inhibitor
O=C(CCc1nc(-c2ccccc2)no1)Nc1cccc(C(=O)NC2CC2)c1 | nt | 17.9%
CCOC(=O)C1=C(CC)OC(N)=C(C#N)C1c1ccc(OC)c(C)c1OC (configuration not stated) | 7.4% | ?
CCNS(=O)(=O)c1ccc(NC(=S)NCC2CCCO2)cc1 (configuration not stated) | 10.6% | 2.3%
CCC(c1nnnn1Cc1ccc2c(c1)OCO2)N1CCN(c2ccccc2)CC1 (configuration not stated) | 0.7% | -17.7%
CC(C)CC(=O)Nc1ccccc1N1CCOCC1 | -7.8% | -1.7%
COc1ccc(C)cc1NC(=O)NNC(=O)C(C)Oc1ccc([N+](=O)[O-])cc1 (configuration not stated) | -5.0% | 8.8%
CCS(=O)(=O)N1CCN(S(=O)(=O)c2ccc(F)cc2)CC1 | -1.3% | -3.9%
Cc1ccc(-n2ncc(C(=O)NCCCN3CCN(C)CC3)c2C2CCN(C(=O)OC(C)(C)C)CC2)cc1 | nt | -1.6%
FC(F)(F)c1ccc(-c2nnc(-c3cccnc3)o2)cc1 | -4.0% | 0.1%
CS(=O)(=O)NCCCNc1ccc(C(F)(F)F)cc1[N+](=O)[O-] | 1.0% | 0.2%
CC(=O)c1ccc(N2CCN(C(=O)Cn3ncc4c3-c3ccccc3OC4)CC2)cc1 | nt | -1.3%
COc1ccc2cc(C(=O)N3CCCC(Nc4ccc(F)cc4)C3)n(C)c2c1 (configuration not stated) | -6.7% | 5.1%

Quoted at random: 3 compounds from above.
SMILES | N370S GC | FEN1 inhibitor
COC(=O)c1cccc(Cn2c(Cl)c(/C=N/Nc3ccccc3C)sc2=O)c1 | -4.5% | 16.2%
O=C(CCN1C(=O)/C(=C\c2ccccc2)SC1=S)NNC(=O)c1ccncc1 | 15.4% | 15.8%
COc1ccccc1NS(=O)(=O)c1cccc(C(=O)NNC(=O)c2ccc(Cl)nc2)c1 | nt | 14.5%

An excerpt of these results, with two lines to a compound.
Value order – N370S GC	FEN1 inhibitor
CCNS(=O)(=O)c1ccc(NC(=S)NCC2CCCO2)cc1 (configuration not stated)
    10.6%	2.3%
CCC(c1nnnn1Cc1ccc2c(c1)OCO2)N1CCN(c2ccccc2)CC1 (configuration not stated)
    0.7%	-17.7%
CC(C)CC(=O)Nc1ccccc1N1CCOCC1
    -7.8%	-1.7%
COc1ccc(C)cc1NC(=O)NNC(=O)C(C)Oc1ccc([N+](=O)[O-])cc1 (configuration not stated)
    -5.0%	8.8%

(further entries)
SMILES | N370S GC | FEN1 inhibitor
CCOC(=O)C1(C)NC(c2ccc(OC)cc2OC)C2C(=O)N(c3cccc(OC)c3)C(=O)C21 (configuration not stated) | 6.9% | 33.0%[activator]
O=C1C2C3C=CC(C2C(=O)N1c1ccc(O)cc1)C1C2C(=O)N(c4ccc(O)cc4)C(=O)C2C31 (configuration not stated) | -5.1% | -13.8%
COc1ccc(CCNC(=O)Cn2c(=O)n(CCCC(=O)NCc3ccco3)c(=O)c3sccc32)cc1OC | 13.1% | 0.5%
CCC(/C=N/Nc1ccc(S(=O)(=O)N2CCCC2)cc1[N+](=O)[O-])CC | -0.7% | -5.4%
CCc1ccc(-c2nn(-c3cc(Cl)ccc3[N+](=O)[O-])c(=O)c3ccccc23)cc1 | 2.8% | 8.7%
COc1ccc(CC(=O)N(Cc2nc(-c3ccc(C)cc3)no2)C(C)C)cc1 | nt | -5.6%
CS(=O)(=O)Cc1ccc(C(=O)N2CCCC2c2cccs2)cc1 (configuration not stated) | 3.0% | 4.0%
O=C(N/N=C/c1cccc(Oc2ccccc2)c1)c1ccccc1Br | 1.8% | -0.9%
CC(=O)N1CCC2(CC1)C/C(=N\NC(=S)Nc1ccccc1C)c1cc(O)ccc1O2 | -18.9% | 2.4%
O=C1c2ccccc2S(=O)(=O)N1CC(O)COc1ccc(Br)cc1 (configuration not stated) | -0.8% | -6.8%
COc1ccc(/C=C2\SC(=O)N(CCNC(=O)C3CC(=O)N(c4ccccc4)C3)C2=O)cc1 (configuration not stated) | -6.8% | -4.0%
Cc1cc(NC(=O)CSc2ncc(C(=O)Nc3ccc(C)c(C)c3)c(=O)n2C)no1 | nt | -4.0%
O=C(COC(=O)c1ccc([N+](=O)[O-])o1)Nc1cccc(S(=O)(=O)N2CCCCC2)c1 | 5.8% | ?
CCC(C)c1ccc(O)c(NC(=S)NC(=O)c2cccnc2)c1 (configuration not stated) | -9.1% | 2.9%
COc1ccc(-c2cc3ccccc3n2CC(O)Cn2nc(C)cc2C)cc1 (configuration not stated) | 5.9% | -4.8%
CC1Cn2cc(C(=O)Nc3ccccc3C(F)(F)F)c(=O)c3c(Cl)ccc(c32)O1 (configuration not stated) | -2.2% | 10.1%
Cc1cccc(S(=O)(=O)Nc2cccc(-c3cn4ccsc4n3)c2)c1 | 12.1% | -18.2%
CCN1CCN(Cc2ccccc2NC(=O)Nc2ccc(C)cc2)CC1 | 2.2% | 1.1%
O=C(CSc1nnc(SCc2cccc3ccccc23)s1)N/N=C/C=C/c1ccccc1[N+](=O)[O-] | -1.4% | -5.8%
CCN(Cc1ccccc1)C(=O)c1cc2c(=O)oc3ccc(C)cc3c2s1 | 5.1% | -6.3%&-14.0%
COc1ccc(/C=C2\C(=N)N3N=C(CC(=O)N4CCOCC4)SC3=NC2=O)cc1 | -0.3% | -2.5%
COc1cccc(C(=O)Nc2ccc(NC(=O)C3CCCCC3)nc2)c1 | ? | 32.3%[activator]
CC(=O)Nc1ccc(S(=O)(=O)N2CCN(c3cc(C)nc4ccccc34)CC2)cc1 | -15.0% | 0.2%
COc1ccc(C(=O)NCCNC(C)=O)cc1S(=O)(=O)NCc1ccc(Cl)cc1 | 2.6% | 3.2%
CCn1cc(CNC(=O)CCSc2nc(-c3ccco3)cc(C(F)(F)F)n2)cn1 | 4.6% | -5.9%
O=C(NCCCO)c1nn(-c2ccc(Cl)cc2)nc1CO | nt | -8.4%
CC(=O)NC12CC3CC(C1)CC(C(=O)OCC(=O)Nc1c(F)cccc1F)(C3)C2 | nt | 1.0%
C=CCOC(Cn1ccnc1)c1ccc(Cl)cc1Cl (configuration not stated) | nt | -11.7%
O=C(NCc1ccc(OC(F)(F)F)cc1)C1CC(c2ccccc2[N+](=O)[O-])=NO1 (configuration not stated) | -7.6% | -6.3%
CC(C)(C)c1ccc2c(c1)N(CC(=O)O)C(=O)CO2 | 16.3% | -1.4%
Cc1ccc(C(=O)N2N=C(c3ccc(Br)cc3)CC2c2ccccc2O)cc1 (configuration not stated) | 25.4% | -2.6%
O=C1CN(C(=O)/C=C/c2ccc(Cl)cc2)c2ccccc2N1 | -16.8% | -18.8%
CCc1nc2sccc2c(=O)n1N | 0.5% | -3.7%
O=C(CCCCC(=O)NC1CCCC1)NC1CCCC1 | 12.7% | -3.8%
Cc1cc(C)c(C#N)c(SCS(=O)Cc2ccc(Cl)cc2)n1 (configuration not stated) | -6.0% | -10.6%
CCOc1ccc(/C=C2\SC(=S)N(NC(=O)c3ccncc3)C2=O)cc1OC | -18.6% | 1.0%
CCCOc1ccc(C(=O)CCC(=O)OCC(=O)Nc2cccc(S(N)(=O)=O)c2)cc1 | -10.0% | 0.9%
CC(C)C[C@@H](CSc1ccc(Br)cc1)N1CCN(CCc2ccccc2)CCC1=O | -17.6% | 1.1%
CC1CCN(c2nnc(-c3ccccc3)c3ccccc23)CC1 | 10.5% | -0.2%
CCC(C)NC(=O)c1ccccc1NC(=O)CN1C(=O)c2ccccc2S1(=O)=O (configuration not stated) | 7.2% | -14.3%
O=C(O)c1ccc(Cl)c(S(=O)(=O)Nc2ccc(S(=O)(=O)Nc3cccc(Cl)c3)cc2)c1 | 14.6% | -1.7%
COc1ccc(-c2nnc(NC(=O)c3ccc4c(c3)OCCO4)o2)cc1 | -2.7% | -12.7%
Cc1nn(-c2ccccc2)c(C)c1NC(=O)COC(=O)c1cccc(OC(F)F)c1 | -7.0% | -5.3%
COc1cc(/C(C)=N/Nc2ccc(C(=O)O)cc2)cc(OC)c1OC | -1.3% | -12.0%
CCOC(=O)C1=C(COC(=O)COc2ccc(Br)cc2)NC(=O)NC1C (configuration not stated) | ? | -5.1%
CCOC(=O)C1=C(CN2CCC(C(=O)OCC)CC2)NC(=O)NC1c1ccc(Cl)cc1 (configuration not stated) | nt | 11.9%
O=C(Nc1ccncc1)C1CCC(CNS(=O)(=O)c2cccc3nsnc23)CC1 (configuration not stated) | -4.1% | -5.2%
CCCCc1nc(SCC(=O)Nc2cc(C)on2)n[nH]1 | -8.1% | 6.7%
O=C(CCc1ccccc1)Nc1cc(C(=O)O)cc(C(=O)O)c1 | -6.2% | 7.4%
CCN1C(=O)N[C@@H](c2cccc(F)c2)C(C(=O)OC)=C1C | 3.5%[12.8 µM] | -8.4%
CC(C)C1NC(C(=O)O)Cc2c1[nH]c1ccccc21 (configuration not stated) | -11.4%&-8.5% | -1.5%
O=C(NCCCN1CCOCC1)C1CC(=O)N(C2CCCCC2)C1 (configuration not stated) | 8.1% | -0.3%
CCn1c(SCC(=O)Nc2ccc3c(c2)oc2ccccc23)nnc1-c1ccc(N)cc1 | nt | -19.8%
O=C(Nc1cccnc1)c1coc(=O)c2ccccc12 | 0.4% | -4.4%
O=C(CN(c1cccc(Cl)c1)S(=O)(=O)c1ccc(Cl)cc1)N1CCc2ccccc2C1 | 10.1% | 2.0%
CCc1cccc2sc(N3CCN(C(=O)C4CC4)CC3)nc12 | nt | 3.9%
CC(=O)C1=C(Nc2ccccc2)CC(C)(O)C(C(C)=O)C1c1ccccc1 (configuration not stated) | 0.4% | -4.9%
O=C1COc2ccc(S(=O)(=O)CCC(=O)N3CCN(c4cccc(C(F)(F)F)c4)CC3)cc2N1 | 8.4% | -11.9%
O=C(Nc1ccc(Oc2cccnc2)cc1)C1CCN(Cc2ccccc2)CC1 | -4.1% | -0.8%
CCOC(=O)c1sc(/N=C/N(C)C)c(C(=O)OCC)c1C | 0.3% | 2.5%
O=C(O)C1CCCCC1C(=O)Nc1nccs1 (configuration not stated) | -10.4% | 3.5%
CNc1nc(N)c([N+](=O)[O-])c(NCc2ccccc2)n1 | 7.8% | 1.7%
